GIRK2 activ: activators of human GIRK2 potassium channels. calls only for hits at 25 µM. HEK293-GIRK2 thallium flux, Thallos fluorescence. 63,000 compounds, 0.05% hits. P48051. AID 1259325;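 active = among the strongest 0.2% of first-round signals and kept after retests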;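 also: first round at about 10 µM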
Target sequence (P48051 whole entry, looked up): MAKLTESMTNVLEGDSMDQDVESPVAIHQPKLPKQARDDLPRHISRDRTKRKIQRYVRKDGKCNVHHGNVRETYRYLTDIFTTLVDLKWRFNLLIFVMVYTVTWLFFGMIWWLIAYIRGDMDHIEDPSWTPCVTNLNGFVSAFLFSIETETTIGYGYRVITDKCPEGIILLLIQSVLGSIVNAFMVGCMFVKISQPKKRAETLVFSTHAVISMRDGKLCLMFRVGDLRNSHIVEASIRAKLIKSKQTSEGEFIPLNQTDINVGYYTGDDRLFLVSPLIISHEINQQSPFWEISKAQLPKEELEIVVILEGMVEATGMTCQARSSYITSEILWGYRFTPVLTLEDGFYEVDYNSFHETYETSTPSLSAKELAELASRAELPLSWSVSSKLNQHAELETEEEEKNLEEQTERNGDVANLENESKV
Calls only; i = inactive. These rows are one share of the data; rates above refer to the full screens.

SMILES	GIRK2 activ
O=C(C1CC(=O)N(c2ccc(F)cc2)C1)N1CCN(CCn2cccn2)CC1 (centres undefined)	i
COCCn1c(-c2ccc(OC)cc2)nc2oc3cc(OC)ccc3c(=O)c2c1=O	i
COc1cccc(N2CC(C(=O)NCCc3cc(C)no3)CC2=O)c1 (centres undefined)	i
CCCN1CCc2nc(SCc3ccccc3)[nH]c(=O)c2C1	i
CCC/C(=N/Nc1nc2c(c(=O)[nH]c(=O)n2C)n1CC(C)O)c1ccccc1 (centres undefined)	i
CC(C)S(=O)(=O)c1ccc(CC(=O)N2CCC(c3nnc(C4CC4)o3)CC2)cc1	i
O=C(c1ccncc1)N1CCC(CNS(=O)(=O)c2ccccc2Br)CC1	i
CCNS(=O)(=O)c1ccc(NC(=O)c2cc(-c3ccncc3)nc3ccccc23)cc1	i
COC(=O)CN1CCC(COCc2cc(OC)cc(OC)c2)CC1	i
O=C(Nc1ccccc1)OC1CCCC(NC(=O)c2ccccc2Br)C1 (centres undefined)	i
CCCn1c(=O)c2c(nc3n(CCCN4CCOCC4)c(C)c(C)n23)n(C)c1=O	i
COc1ccc(NC(=O)Cn2cccc(-c3nc(-c4ccc(Cl)cc4)no3)c2=O)cc1	i
Fc1ccc(CN2CCC(c3cccs3)CC2)cc1	i
COc1ccc(NC(=O)C(=O)NC2CC2)cc1OC	i
O=C(Nc1ccccc1Cl)N1CCC2(CC1)OCCS2	i
COC(=O)C1=C(C)N=c2s/c(=C/c3ccoc3)c(=O)n2C1c1ccc(OC)cc1 (centres undefined)	i
Cc1cccc(Cn2c(=O)c3c(nc4n3CCCN4c3ccc(Oc4ccccc4)cc3)n(C)c2=O)c1	i
COc1ccc(Nc2ccc3c(=O)c(-c4ccccc4)coc3c2)c(OC)c1	i
COc1ccc(-c2ccc(S(=O)(=O)NCC(=O)O)cc2)cc1	i
N#C/C(=C\c1cccs1)c1nc2ccccc2o1	i
O=C(CN1C(=O)CCC1=O)N1CCOC(Cc2ccccc2)C1 (centres undefined)	i
CCOc1ccc(/C=C/C(=O)Nc2c(C)cccc2C)cc1	i
COc1cc(NC(=O)COc2cc(C)nc(N3CCN(c4ccccc4)CC3)n2)cc(OC)c1	i
Cn1nnn(-c2ccc(NC(=O)Nc3ccc(C(C)(C)C)cc3)cc2)c1=O	i
COc1cccc(C2c3c(oc4ccccc4c3=O)C(=O)N2CCCN(C)C)c1 (centres undefined)	i
CCOc1ccc(NC(=O)c2csc(Cc3nc(-c4ccccc4)no3)n2)cc1	i
CCOC(=O)C1=C(C)NC(=S)NC1c1ccc(OC)c(OC)c1 (centres undefined)	i
O=C(Cn1cnc(-c2cccs2)cc1=O)Nc1nc2c(s1)CCCC2	i
CN(C)CC#CCNC(=O)C(c1ccccc1)c1ccccc1	i
COC(=O)N1CCN(CCNC(=O)Nc2cccc(OC)c2)CC1	i
O=C(NCCC(O)C1CC1)Nc1ccc(F)cc1 (centres undefined)	i
CC(=O)C(C)n1c(=O)c2c(nc3n(C4CCCCC4)c(C)cn23)n(C)c1=O (centres undefined)	i
CCOC(=O)CSc1nc2ccccc2c(=O)n1NC(=O)Cc1ccccc1	i
COc1ccc(N2C(=O)CSC23C(=O)N(CC(=O)Nc2cccc(C)c2)c2ccccc23)cc1 (centres undefined)	i
Cc1nnc(C2CCCN(C(=O)c3ccc4c(c3)OCO4)C2)s1 (centres undefined)	i
Cc1nc2c(C)cccn2c(=O)c1NC(=O)Nc1ccc(F)cc1F	i
CCOCCn1c(N2CCN(c3ccccc3)CC2)nc2c1c(=O)[nH]c(=O)n2C	i
O=c1ccc(-c2ccc(Br)cc2)nn1Cc1nc(-c2cccs2)no1	i
O=C(c1cc(-c2ccco2)[nH]n1)N1CCN(C(=O)C2CC2c2cccs2)CC1 (centres undefined)	i
Cc1nnc(NC(=O)COc2ccc3c(c2)C(=O)CC3)s1	i
Cc1cccc2sc(NC(=O)CCC3NC(=O)c4ccccc4NC3=O)nc12 (centres undefined)	i
CC(Cc1ccco1)NC(=O)c1ccc(Cl)c(Cl)c1 (centres undefined)	i
N[C@@H](CC(=O)N1CCn2c(nnc2C(F)(F)F)C1)Cc1cc(F)c(F)cc1F	i
COc1ccc2c(c1)sc(=NC(=O)c1cc(C)no1)n2C	i
CC(=O)c1cccc(NS(=O)(=O)c2ccc(Cl)c(C(F)(F)F)c2)c1	i

Gathered by group: those above with an aryl thioether with sulfur outside any ring.
SMILES	GIRK2 activ
CCCN1CCc2nc(SCc3ccccc3)[nH]c(=O)c2C1	i
CCOC(=O)CSc1nc2ccccc2c(=O)n1NC(=O)Cc1ccccc1	i

Next part
SMILES	GIRK2 activ
Cc1cc(SCC(=O)Nc2ccc(Cl)cc2C(F)(F)F)nc(-c2cccnc2)n1	i
CC(=O)Nc1cccc(NC(=O)C(=O)NC(C)Cc2ccco2)c1 (centres undefined)	i
Cc1cc(C)c(NC(=O)Cn2cccc(S(=O)(=O)N3CCCCC3)c2=O)c(C)c1	i
CC(C)Oc1ccc(C(=O)N2CCN(Cc3nc(C4CC4)cs3)CC2)cc1	i
CCCCS(=O)(=O)NC(C)Cc1ccco1 (centres undefined)	i
COc1ccccc1CNC(=O)C(=O)NCC1(c2ccc(F)cc2)CC1	i
O=C(c1ccc(Cl)s1)N1CCC(Oc2cnccn2)CC1	i
c1ccc2c(c1)CCN(c1nc(N3CCOCC3)c3n[nH]nc3n1)C2	i
O=C(CN1CCN(CC(O)C2CC2)CC1)Nc1nccs1 (centres undefined)	i
O=c1c([N+](=O)[O-])c(NCC2CCCO2)c2ccccc2n1-c1ccccc1 (centres undefined)	i
O=C(CSc1ccc(F)cc1)N1CCC(c2nnc(C3CC3)o2)CC1	i
COc1ccc(-c2cn3c(C(=O)N4CCc5ccccc54)csc3n2)cc1	i
CCCCNC(=O)NS(=O)(=O)c1ccc(NC(=O)CCl)cc1	i
O=c1c2ccccc2oc2nc(-c3ccco3)n(Cc3ccccc3)c(=O)c12	i
CC(C)(C)c1nc2c3cnn(-c4ccc(F)cc4)c3ncn2n1	i

Some of the entries above in a different format.
smiles,GIRK2 activ
O=C(Nc1ccccc1Cl)N1CCC2(CC1)OCCS2,i
COC(=O)C1=C(C)N=c2s/c(=C/c3ccoc3)c(=O)n2C1c1ccc(OC)cc1 (centres undefined),i

New compounds follow.
SMILES	GIRK2 activ
COc1ccccc1N1CCN(CC(=O)Nc2ccccc2SC)C1=O	i
COc1ccc2c(=O)c(Oc3ccc(F)cc3)coc2c1	i
Cc1csc(NC(=O)c2c[nH]c3ccc(Cl)cc3c2=O)n1	i
O=C(CN1C(=O)c2ccccc2C1=O)NCC1CCS(=O)(=O)C1 (centres undefined)	i
Cc1ccc(C)c2sc(N(C)CC(=O)N3CCN(c4ccccc4O)CC3)nc12	i
COc1cccc(CNC(=O)c2nnn(-c3cccc(F)c3C)c2-c2cccnc2)c1	i
CC(C)CC(NC(=O)C(COC(C)(C)C)NC(=O)C(Cc1ccc(O)cc1)NC(=O)C(CO)NC(=O)C(Cc1c[nH]c2ccccc12)NC(=O)C(Cc1cnc[nH]1)NC(=O)C1CCC(=O)N1)C(=O)N[C@@H](CCCN=C(N)N)C(=O)N1CCCC1C(=O)NNC(N)=O (some centres undefined)	i
CCOc1ccc(S(=O)(=O)Nc2ccc3c(c2)N(S(=O)(=O)c2ccc(F)cc2)CCC3)cc1	i
C=CCn1c(SCC(=O)Nc2ccc(OCC)cc2)nc2scc(-c3ccco3)c2c1=O	i
COC(=O)Cn1c(-c2ccccc2)c[nH]c1=S	i
COc1ccc(N(C)S(=O)(=O)c2ccsc2-c2nc(-c3ccccc3)no2)cc1Cl	i
COc1ccc(C2NC(=S)NC(C)=C2c2nc(-c3ccccc3)no2)cc1OC (centres undefined)	i
O=C(/C=C/c1ccco1)NCC#CCOc1cccc(C(F)(F)F)c1	i
Cc1ccc(NC(=O)c2cn(C)nc2S(=O)(=O)N2CCN(c3cccc(Cl)c3)CC2)cc1F	i
Cc1nc(N2CCN(C(=O)Nc3cccc(C(F)(F)F)c3)CC2)cc(-n2cccc2)n1	i

Laid out differently: entries from further up
Molecule: COc1ccccc1N1CCN(CC(=O)Nc2ccccc2SC)C1=O
  GIRK2 activ: i

Molecule: O=C(c1ccncc1)N1CCC(CNS(=O)(=O)c2ccccc2Br)CC1
  GIRK2 activ: i

(continued)
SMILES	GIRK2 activ
CC(Oc1ccccc1)C(=O)N1CCN(CC(=O)c2ccco2)CC1 (centres undefined)	i
O=C(Nc1ccc2c(=O)c3ccccc3oc2c1)c1ccc(Cl)cc1	i
COc1ccc(NC(=O)CCCCCn2nnc3ccccc3c2=O)cc1	i
O=C(Nc1ccnc2ccc(Cl)cc12)c1ccc(S(=O)(=O)N2CCCC2)cc1	i
CN1CCN(C(=O)c2cc(-c3cccs3)n(CC(=O)NCCCn3ccnc3)n2)CC1	i
COc1ccc(OC)c(-c2cc(C(=O)N3CCN(C4CCCCC4)CC3)n(C)n2)c1	i
CCN1c2ccccc2-c2nc(SCC(=O)NCc3ccc4c(c3)OCO4)ncc2S1(=O)=O	i
O=C(Cn1c(=O)c(CNc2ccccc2)cc2cc3c(cc21)OCCO3)Nc1ccccc1	i
O=C(Cn1cccc(-c2nc(-c3cnccn3)no2)c1=O)Nc1ccc2c(c1)OCCO2	i
COc1ccc(N2C(=O)N(CC(=O)NC3CCCC3)c3ccccc3S2(=O)=O)cc1OC	i
CCOC(=O)N1CCCSCC1CN1CCCC1 (centres undefined)	i
CSCCC(C)(O)CNC(=O)c1cnccn1 (centres undefined)	i
COCCN(Cc1ccsc1)C(=O)NCCCc1ccccc1	i
O=C(Cn1ccn2nc(-c3ccc(Cl)cc3)cc2c1=O)N1CCN(c2ccccc2F)CC1	i
COc1cc(/C=N/Nc2nc3ccccc3[nH]2)cc(OC)c1OC	i
COc1ccccc1OCC#CCNC(=O)Cc1ccc(F)cc1	i
Cc1ccc(S(=O)(=O)c2cn(CC(=O)Nc3ccc(F)cc3)c3ccc(F)cc3c2=O)cc1	i
CCOC(=O)C1CCN(c2cc(=O)n(-c3ccc(C)cc3)c(=O)[nH]2)CC1	i
Cc1nc(C)c(C(=O)C2=C(O)C(=O)N(CCCN(C)C)C2c2ccco2)s1 (centres undefined)	i
O=C(Cn1nc(-n2cccn2)ccc1=O)Nc1ccc2c(c1)Cc1ccccc1-2	i
CCn1ccc(C(=O)N2CCN(S(C)(=O)=O)CC2)n1	i
COc1ccc(/C=C/C(=O)NCc2cc(-c3ccncc3)n(C)n2)cc1OC	i
COc1ccc(CC(C)(O)CNC(=O)Cc2ccc(F)cc2)cc1 (centres undefined)	i
CS(=O)(=O)N1CCN(C(=O)c2cc(-c3ccc(F)cc3)c[nH]2)CC1	i
Cc1ccc(NC(=O)C(=O)NCC(O)c2ccc3c(c2)CCO3)cc1C (centres undefined)	i
Cc1cc(C)n(-c2nc(CCNC(=O)COc3ccc(F)cc3)cs2)n1	i
CCC(=O)NCCCc1nc2ccccc2n1Cc1ccccc1F	i
COc1ccc(-c2cn3c(C(=O)Nc4ccc(F)cc4F)csc3n2)cc1	i
CCCn1cc(-c2nc(-c3ccc(OC)c(OC)c3)no2)c(=O)c2cc(F)ccc21	i
COc1ncccc1C(=O)N1CCC(Oc2ccc(C(F)(F)F)cn2)CC1	i
COc1nn(C)cc1C(=O)N1CC(Oc2nc3c(Cl)cccc3s2)C1	i
O=C(Cn1ccn2nc(-c3ccccc3)cc2c1=O)N1CCC(Cc2ccccc2)CC1	i
N#Cc1c(NC(=O)c2ccoc2COc2ccccc2)sc2c1CCCC2	i
COc1ccc(Cl)cc1N1CCn2c1nc1c2c(=O)n(CC(=O)C(C)(C)C)c(=O)n1C	i
Cc1cc(NC(=O)c2ccc([N+](=O)[O-])s2)n(-c2nc3ccccc3s2)n1	i
Cc1cc(C)n(-c2ccc(C(=O)NCCCN3CCCC3=O)nn2)n1	i
COc1ccc(Cl)cc1NC(=O)Cn1c(-c2ccncc2)nc2ccccc21	i
c1ccc(Oc2ccc(Nc3ncc(-c4ccccc4)o3)cc2)cc1	i
CCOc1ccc(-n2ccn(CC(=O)Nc3ccc(C)cc3Cl)c(=O)c2=O)cc1	i
COc1cccc(C(=O)N2CC(c3nc(-c4cccnc4)no3)C2)c1OC	i
COc1cc(/C=C/C(=O)NCCCCNC(C)=O)ccc1O	i
C=CCn1c(SCC(=O)Nc2ccc(OC)cc2)nc2scc(-c3ccc(OC)cc3)c2c1=O	i
O=C(/C=C/c1cccs1)NCc1nc2ccccc2[nH]1	i
Cc1cn2c3c(=O)[nH]c(=O)n(C)c3nc2n1CCNc1cccc(Cl)c1	i
CNC(=O)Cc1csc(NC(=O)CCc2c(C)noc2C)n1	i
Cc1cc(S(=O)(=O)NCC(c2ccco2)N2CCc3ccccc3C2)ccc1F (centres undefined)	i
CC1CCCCC1NC(=O)c1ccc(-n2cccn2)nn1 (centres undefined)	i
CCOC(=O)c1ccc(NC(=O)Cn2cnc3c(sc4cccc(F)c43)c2=O)cc1	i
CC1(C)Cc2cccc(OCC(=O)NCC3CCN(C(=O)c4cc5ccccc5o4)CC3)c2O1	i
O=C(/C=C/c1ccc2c(c1)OCO2)NCC1COC2(CCCCC2)O1 (centres undefined)	i
O=C(NCC1CCN(C(=O)Oc2ccccc2)CC1)C1CC=CCC1 (centres undefined)	i
NS(=O)(=O)c1ccc(CNC(=O)C2CCN(C(=O)NCc3cccs3)CC2)cc1	i

Random excerpt: two records from the list.
SMILES	GIRK2 activ
Cc1cc(S(=O)(=O)NCC(c2ccco2)N2CCc3ccccc3C2)ccc1F (centres undefined)	i
O=C(NCC1CCN(C(=O)Oc2ccccc2)CC1)C1CC=CCC1 (centres undefined)	i
